# Screening results deposited in PubChem by ICCB-Longwood Screening Facility, Harvard Medical School.
# Anaer choline gr: growth inhibitors of anaerobic choline-fed gram-negatives, minimal medium, absorbance; 0.2% of 55,000 active; calls only; Gram-negative bacterium anaerobic choline minimal medium; hits give low values; many inactives read as strong as hits in the columns shown; AID 1963822, 2024;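 active = growth z-score on choline under -2 at 7 or 20 h with little or no fall on glycerol, limits in tiers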;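 also: stock transfer was 300 nL into about 50 µL; the organism is E. coli; final concentration not given here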
# Anaer choline gr early: recorded beside Anaer choline gr, whose call it bears; z-score; measured here: choline growth z-score, timepoint 1;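 score of optical density at 7 h as mean of two plates; lower means less growth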
# The depositor's hits bear a star; i = inactive; & = joins results of further samples. These rows are one share of the data; the hit share may differ from the screen's.
No.	structure	Anaer choline gr	Anaer choline gr early
1	CC(C)N(C(=O)CN(C)S(=O)(=O)c1cc2c(cc1Cl)NC(=O)CO2)C1CCCCC1	i	0.57
2	COc1ccc(C2c3c(n(C)c4ccccc34)C(=O)N2CC(=O)Nc2cc(C)cc(C)c2)cc1 (stereo unspecified)	i	0.34
3	Cc1ccc(-c2csc(Cc3nc(-c4ccccc4)no3)n2)cc1	i	-0.54
4	Cc1cc(N2CCOCC2)nc2ccc(NC(=O)Nc3ccc(Br)cc3)cc12	i	-1.4
5	CCOC(=O)c1nc2ccccc2n(Cc2cccc(Cl)c2)c1=O	i	0.84
6	CCc1ccc(NC(=O)N(CCN2CCOCC2)C2CCN(C(C)=O)CC2)cc1	i	0.1
7	CCOc1ccc(Oc2ncnc3oc(C)c(C)c23)cc1	i	0.44
8	Fc1ccc(N2CCN(c3ncnc4c3cnn4-c3ccc(F)cc3)CC2)cc1	i	0.98
9	COc1ccc(-c2noc(CSCC(=O)N3CCc4ccccc43)n2)cc1OC	i	0.01
10	CCOC(=O)c1cc(S(=O)(=O)N2CCCC2C(=O)NC(C)(C)C)cn1C (stereo unspecified)	i	-0.3
11	CC1CCC(NS(=O)(=O)c2ccc3c(c2)CCN3C(=O)CCC(=O)N2CCCC2)CC1 (stereo unspecified)	i	0.61
12	Cc1nnc(-c2coc(S(=O)(=O)N3CCOCC3)c2)o1	i	-0.24
13	COC(=O)c1ccccc1NC(=O)c1nn(-c2ccc(C)cc2)c(=O)n(C)c1=O	i	-0.17
14	Cc1ccc(NC(=O)c2cnc3ccccn3c2=O)cc1	i	1.4
15	O=C(O)c1cc(N2CCN(c3ccc(Cl)cc3)CC2)ccc1NC(=O)C1CCC1	i	0.14
16	CCn1c(C)c(-c2nc(C3CC3)no2)c(S(=O)(=O)NC2CCCC2)c1C	i	-0.31
17	CCOC(=O)c1cccc(-n2nnc3c(sc4nc(C)c(C)cc43)c2=O)c1	i	0.99
18	C=CCn1c(=O)c2cnc(-c3ccc(OC)cc3)nc2n(C)c1=O	i	0.32
19	Cc1nnc(-c2ccc(S(=O)(=O)NC3CC3)s2)o1	i	-0.28
20	CCc1nc(-c2cc(S(=O)(=O)NCC(=O)NC3CC3)c(C)s2)no1	i	-0.2
21	Cc1ccc(C)c(NC(=O)N2CCN(S(=O)(=O)c3ccc4c(c3)NC(=O)C(C)O4)CC2)c1 (stereo unspecified)	i	0.12
22	FC(F)(F)c1cc(-c2cccnc2)nc2cc(-c3ccc(Cl)cc3)nn12	i	-0.21
23	Cc1ccc(-c2nc3n(c2CNC(=O)C2CCCC2)CCS3)cc1	i	-0.64
24	CCCCNC(=O)c1nc(-c2ccccc2)n(-c2ccc(Cl)cc2)n1	i	0.96
25	Cc1ccc(CN(Cc2cc(=O)n3cc(C)ccc3n2)CC(C)C)cc1	i	-1.8
26	Cc1ccc2[nH]c(C(=O)NCc3ccccc3)cc2c1	i	0.54
27	CCc1ccc(S(=O)(=O)N2CCN(c3nc4cc(Br)ccc4n4cccc34)CC2)cc1	i	0.45
28	Cc1ccc(Cn2cccc2CNS(=O)(=O)Cc2ccccc2)cc1	i	1.2
29	CCc1ccc(CNC(=O)CC2CCN(C(=O)c3[nH]c(C)c(C(=O)OC)c3C)CC2)cc1	i	0.71
30	CS(=O)(=O)c1ccc(-c2cc(Br)sc2-c2ccc(F)cc2)cc1	i	0.58
31	CCOC(=O)c1ccc(NC(=O)NC(c2ccccc2)c2nnc(-c3ccc(Cl)cc3)o2)cc1 (stereo unspecified)	i	0.49
32	Cc1nc(CCNC(=O)[C@H]2CCCN2S(=O)(=O)c2ccc(F)c(Cl)c2)cs1	i	0.37
33	O=C(Nc1ccc(Cl)cc1)c1nnc(C2CCCN(C(=O)Nc3cc(F)ccc3F)C2)s1 (stereo unspecified)	i	0.3
34	Fc1ccccc1-c1ccc(CNCc2cccs2)o1	i	-1.9
35	O=C(Nc1ccc2c(c1)OCO2)c1ccc(Nc2cc(-c3ccc(F)cc3)ncn2)cc1	i	1.1
36	Cc1cc(C(=O)N2CCOCC2)c2cccc(C)c2n1	i	-1.9
37	Cc1nc(C)c(C(=O)Nc2cccc(F)c2)s1	i	-0.99
38	CC(C)(C)c1ccc(C(CNC(=O)c2cc(=O)c3ccc(Br)cc3o2)N2CCCC2)cc1 (stereo unspecified)	i	0.74
39	CCC1=NS(=O)(=O)c2cccnc2N1c1ccc2c(c1)CCC2	i	1
40	COc1ccc(N(Cc2cc(CN3CCOCC3)cs2)S(=O)(=O)c2c(C)n[nH]c2C)cc1	i	-1.2
41	O=C(CN1C(=O)CC(c2cccc(Cl)c2)=Nc2cccnc21)Nc1ccc2c(c1)OCCO2	i	1.4
42	CCC(=O)Nc1nc2ccc(CC(=O)N3CCN(c4ccccn4)CC3)cc2s1	i	-0.3
43	Cc1sc(-c2cc(C(F)(F)F)on2)cc1S(=O)(=O)NCc1ccc(Cl)cc1	i	0.66
44	CCn1cc(CN2CCN(c3ncnc4c3CCC4)CC2)cn1	i	-1
45	Cc1nnc(-c2csc(S(=O)(=O)NC3CCCC3)c2)o1	i	-0.05
46	O=C(Cc1ccc(NC(=O)N2CCSc3ncccc32)cc1)Nc1cccc(Br)c1	i	-0.15
47	O=C(Nc1cnn(-c2ncc(N3CCSCC3)cn2)c1)NC1CCCC1	i	-0.17
48	CCCCC1CCC(C(=O)Oc2cccc(-n3cnnn3)c2)CC1 (stereo unspecified)	i	1.4
49	COC(=O)c1sccc1NC(=O)CSc1nccnc1N1CCN(c2ccccc2)CC1	i	0.48
50	CCOC(=O)c1cc2n(n1)CC(C)(C(=O)NC1CCCCC1)N(Cc1cccc(C)c1)C2=O (stereo unspecified)	i	0.51

# (continued)
No.	Structure	Anaer choline gr	Anaer choline gr early
51	CC1CCCN(c2ccc(-c3noc(CN4CCSCC4)n3)cn2)C1 (stereo unspecified)	i	-0.03
52	Cc1nnc(-c2cc(NS(C)(=O)=O)c(C)s2)o1	i	-0.24
53	Cc1cccc(N2CCN(c3ncc(NC(=O)c4ccccc4C)cc3C(=O)O)CC2C)c1 (stereo unspecified)	i	-1
54	COc1ccc(CCN2CNc3c(c(=O)n(C)c(=O)n3C)C2)cc1OC	i	-0.27
55	CCN(CC)S(=O)(=O)c1ccc(NC(=O)N2CCCC(C(=O)Nc3cc(C)cc(C)c3)C2)s1 (stereo unspecified)	i	-0.46
56	CCn1c(C)c(-c2nc(C3CC3)no2)c(S(=O)(=O)NCC(C)C)c1C	i	-0.67
57	O=c1c(O)c(-c2cc(O)c(O)c(O)c2)oc2cc(O)cc(O)c12	i	0.77
58	O=C1CCCc2cc(S(=O)(=O)NCc3cccnc3)ccc2N1	i	-0.98
59	CC(C)Cn1cnc2nc(CSc3ccccc3NC(=O)Nc3cccc(F)c3)cc(=O)n21	i	-0.24
60	Cc1cccc2c1-c1sc(C(=O)NCCCN3CCC(Cc4ccccc4)CC3)cc1CO2	i	-4.7
61	CCn1c(CCc2ccc(NS(=O)(=O)c3ccc(C)cc3)cc2)nc2ccccc21	i	0.83
62	Cc1ccccc1C(=O)Nc1cccc(-c2ccc3ccccc3n2)c1	i	0.42
63	Cn1cc2c(n1)c(=O)n(Cc1ccc(F)cc1)c1nn(Cc3ccc(F)cc3Cl)c(=O)n21	i	-0.33
64	COc1cc(NC(=O)NCCc2nc3cccnc3n2-c2ccccc2)cc(OC)c1	i	-1.3
65	COC(=O)c1c2c(nc3ccccc13)CCN(C(=O)Nc1cc(Cl)ccc1OC)C2	i	1.2
66	O=C(NCCCn1c(-c2ccncc2)nc2cccnc21)Nc1ccccc1Br	i	-0.54
67	CCOC(=O)c1c(C)[nH]c(NC(=O)Nc2ccc(F)cc2)c1C	i	-0.48
68	O=C(NCCC1=CCCCC1)c1c(-c2ccccc2)nc2n1CCS2(=O)=O	i	0.14
69	O=C(c1csc(-c2ccnc(N3CCOCC3)c2)n1)N1CCN(c2ccccn2)CC1	i	-0.5
70	COc1ccc(-c2nnc(SCc3ccc(Br)cc3)o2)cc1	i	0.84
71	CCCCN1CN=C(Nc2nc(C)c3cc(OCC)ccc3n2)NC1	i	0.38
72	Cc1ccc(Oc2ccc(-c3noc(CNS(=O)(=O)c4ccccc4)n3)cc2)cc1	i	0.02
73	N[C@H](C(=O)O)c1cc(O)cc(O)c1	i	0.02&-0.12
74	Cn1c(SCC(=O)NC2CCCC2)nc2cc(-c3ccccc3)sc2c1=O	i	0.01

# An excerpt from above in order of the Anaer choline gr early value, descending.
no.	Compound	Anaer choline gr early
70	COc1ccc(-c2nnc(SCc3ccc(Br)cc3)o2)cc1	0.84
71	CCCCN1CN=C(Nc2nc(C)c3cc(OCC)ccc3n2)NC1	0.38
69	O=C(c1csc(-c2ccnc(N3CCOCC3)c2)n1)N1CCN(c2ccccn2)CC1	-0.5

# Remaining list, next part
No.	Structure	Anaer choline gr	Anaer choline gr early
75	CCOc1ccc(-c2cc3c(SC(C)C)nccn3n2)cc1	i	0.25
76	O=C(Cn1nnc(-c2ccccc2S(=O)(=O)N2CCN(c3nc4ccccc4s3)CC2)n1)NC1CCCC1	i	0.42
77	Cn1c(=O)n(C)c2cc(SC3CCCCC3)c(NC(=O)c3ccccc3)cc21	i	1.7
78	CCc1ccccc1NC(=O)N1CCCC1C(=O)O (stereo unspecified)	i	1.2
79	CCn1c(=O)c2c(nc3n2CC(C)CN3C2CCCCC2)n(C)c1=O (stereo unspecified)	i	0.18
80	CC1CCN(S(=O)(=O)c2nnc(NC(=O)c3ccccc3)s2)CC1	i	0.77
81	CCN1c2ccccc2C(=O)NC12CCN(C(=O)Nc1ccc3c(c1)OCO3)CC2	i	1
82	Nc1nc(NCCc2ccc(O)cc2)nc2nc(-c3ccco3)nn12	i	-0.26
83	Cc1nc2nc3c(c(N4CCN(c5cccc(Cl)c5)CC4)n2n1)CCC3	i	0.15
84	Cc1nc(-c2cc3cccc(C)c3nc2N2CCCC2)no1	i	-1.3
85	Cc1ccc(CNC(=O)CCC(=O)Nc2noc3ccccc23)cc1	i	0.81
86	CCn1nc2ccc(S(=O)(=O)N3CCC(C)CC3)cn2c1=O	i	-0.09
87	COC(=O)c1sc2ccccc2c1S(=O)(=O)N1CCC(C(N)=O)(N2CCCCC2)CC1	i	2.7
88	Cn1cc(S(=O)(=O)N2CCCCC2)cc1C(=O)Nc1ccccc1	i	-0.57
89	Cn1c(=O)[nH]c(=O)c2c(C3C(=O)Nc4ccccc43)c(-c3ccc(Br)cc3)[nH]c21 (stereo unspecified)	i	1
90	O=C1c2c(O)cccc2Cc2cccc(O)c21	i	0.56
91	Cc1oc(-c2cccs2)nc1CSc1ncnc2nc[nH]c12	i	0.21
92	COc1cccc(NC(=O)C2CCN(c3c(N4CCCC4)c(=O)c3=O)CC2)c1	i	-1.9
93	CCC(=O)N1CCCC1c1nc2ccccc2n1CC(=O)N1CCCC1 (stereo unspecified)	i	-0.5
94	O=C(C1CCN(c2cn[nH]c(=O)c2)CC1)N1CCC2(CC1)OCCO2	i	-0.95
95	C=CCN1CCc2c(cc(O)c(O)c2Cl)C(c2ccccc2)C1 (stereo unspecified)	i	-1.2
96	Cc1sc(-c2cc(C(F)(F)F)on2)cc1S(=O)(=O)NC1CCCCCC1	i	1.3
97	COc1ccc(NC(=O)c2ccc(C)c(NC3=NC4CS(=O)(=O)CC4S3)c2)c(OC)c1 (stereo unspecified)	i	1.8
98	Cc1ccc(CSc2nc3cc(C(=O)NC4CCCC4)ccc3c(=O)n2CC2CCCO2)cc1 (stereo unspecified)	i	0.55
99	Cc1ccc(C(=O)Nc2cnn(C)c(=O)c2N2CCCCC2)cc1	i	0.5
100	CC(C)Oc1ccc(C(=O)Nc2ccc(N3CCCS3(=O)=O)cc2)cc1	i	0.11
101	Cc1ccc(N2C(=O)CN(Cc3ccccc3)[C@H]3CS(=O)(=O)C[C@H]32)cc1	i	-0.26
102	CC(C)CNS(=O)(=O)C1CCS(=O)(=O)C1 (stereo unspecified)	i	0.56
103	COc1ccc(-c2noc(N3CCC(C(=O)Nc4cc(C)on4)CC3)n2)cc1OC	i	-0.09
104	Cc1ccc(-n2ncc(-c3cc(C(=O)NC4CC4)c4cc(C)ccc4n3)c2C)cc1	i	0.78
105	CC1=C(c2ccc(C(C)C)cc2)S(=O)(=O)N(CC(=O)Nc2cc(C)ccc2C)C1=O	i	0.96
106	COc1ccc(NC(=O)N2CCN(S(=O)(=O)c3ccc4c(c3)NC(=O)CO4)CC2)cc1	i	-0.75
107	O=C(NCCCN1CCOCC1)c1ccc(Oc2nccnc2Sc2ccc(Cl)cc2)cc1	i	-0.4
108	CCOC(=O)C(N)Cc1ccc(-c2cc(OC(c3ccc(Cl)cc3-n3ccc(C)n3)C(F)(F)F)nc(N)n2)cc1 (stereo unspecified)	i	0.69
109	CC1CCCN(C(=O)c2cc3c(s2)N(C)CCC3)C1 (stereo unspecified)	i	0.63
110	CC(C)CCn1c(SCc2nc(-c3cccc(Cl)c3)no2)nc2cc3c(cc2c1=O)OCO3	i	-0.58
111	O=C(c1ccc(N2C(=O)CCS2(=O)=O)cc1)N1CCN(Cc2ccc3c(c2)OCO3)CC1	i	-1.4
112	CC(C)CC(=O)Nc1cc2c(cc1N1CCCCC1)n(C)c(=O)c(=O)n2C	i	-0.17
113	COC(=O)c1ccc(CSc2nc3ccncc3n2CC(=O)N2CCCC2)cc1	i	-0.92
114	Cc1ccc(C)c(C2CC(=O)Nc3n[nH]c(C)c32)c1 (stereo unspecified)	i	-0.68
115	Cc1ccc(C(=O)Nc2ccc3c(c2)nc2n3CCN(Cc3ccccc3)C2)cc1	i	0.55

# Reprinted at random: five entries already listed
No.	Structure	Anaer choline gr	Anaer choline gr early
114	Cc1ccc(C)c(C2CC(=O)Nc3n[nH]c(C)c32)c1 (stereo unspecified)	i	-0.68
107	O=C(NCCCN1CCOCC1)c1ccc(Oc2nccnc2Sc2ccc(Cl)cc2)cc1	i	-0.4
110	CC(C)CCn1c(SCc2nc(-c3cccc(Cl)c3)no2)nc2cc3c(cc2c1=O)OCO3	i	-0.58
111	O=C(c1ccc(N2C(=O)CCS2(=O)=O)cc1)N1CCN(Cc2ccc3c(c2)OCO3)CC1	i	-1.4
115	Cc1ccc(C(=O)Nc2ccc3c(c2)nc2n3CCN(Cc3ccccc3)C2)cc1	i	0.55
